D2 PAM = Beta-Arrestin HTS for Positive Allosteric Modulators of the Human D2 Dopamine Receptor: Potentiators; D(2) dopamine receptor (Homo sapiens), P14416; DiscoveRx D2 beta-arrestin cells, luminescence, 90 min; 100% = 57 uM dopamine signal; potentiation, % (test concentration not listed); hit rate 0.23% among 360,000; AID 624464, 2012; active = potentiation of 50% or more; inconclusive = 30% to 50%; inactive = 30% or less;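 note: compound concentration not given in the record; tested on top of an EC20 dose of dopamine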
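PathHunter beta-arrestin assay in DiscoveRx D2 cells. Compounds were added with an EC20 of dopamine (50 nM final) for 90 min at 37 deg C. Luminescence was read 1 h after detection reagent, with 57 uM dopamine as the EC100 control.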
Six1-Eya2 blk = qHTS Assay for Inhibitors of the Six1/Eya2 Interaction | hit rate 0.56% among 360,000 | AID 651725, 2012 | Homeobox protein SIX1 (Homo sapiens) + Protein phosphatase EYA2 (Homo sapiens), … | activity change, % (no concentration beside the values) | AlphaScreen GST-Six1/His-Eya2 binding, biochemical; active compounds read low; control for the full effect not named in the record; in the data active = activity change below about -65%; inconclusive = about -30% to -65%; inactive = above about -30%; note: % is set by controls: 0 for no effect and ±100 for the full control effect
Target sequence (O00167 whole entry, looked up): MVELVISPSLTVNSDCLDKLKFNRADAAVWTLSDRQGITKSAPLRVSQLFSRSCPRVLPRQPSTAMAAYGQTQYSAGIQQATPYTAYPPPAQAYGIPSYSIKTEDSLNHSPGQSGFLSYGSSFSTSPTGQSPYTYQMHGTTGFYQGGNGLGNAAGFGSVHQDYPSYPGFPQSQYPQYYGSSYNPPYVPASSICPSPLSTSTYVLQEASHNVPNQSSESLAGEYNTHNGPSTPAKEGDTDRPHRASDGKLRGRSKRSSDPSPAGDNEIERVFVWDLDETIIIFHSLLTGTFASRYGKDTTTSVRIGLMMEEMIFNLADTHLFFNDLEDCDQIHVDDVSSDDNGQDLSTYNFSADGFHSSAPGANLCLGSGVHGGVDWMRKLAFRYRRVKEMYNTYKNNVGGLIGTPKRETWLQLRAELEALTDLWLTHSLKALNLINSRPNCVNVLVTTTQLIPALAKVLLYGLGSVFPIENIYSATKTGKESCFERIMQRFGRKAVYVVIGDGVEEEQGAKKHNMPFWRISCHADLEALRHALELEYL
Target sequence (Q15475 whole entry, looked up): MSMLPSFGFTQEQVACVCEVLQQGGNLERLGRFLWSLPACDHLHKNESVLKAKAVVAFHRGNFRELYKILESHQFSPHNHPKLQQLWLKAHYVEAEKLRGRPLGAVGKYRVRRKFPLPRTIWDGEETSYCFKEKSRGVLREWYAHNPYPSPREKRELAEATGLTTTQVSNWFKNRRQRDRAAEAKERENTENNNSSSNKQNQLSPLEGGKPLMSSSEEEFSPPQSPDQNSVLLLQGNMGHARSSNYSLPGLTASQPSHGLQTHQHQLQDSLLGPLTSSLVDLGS
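Six1/Eya2 binding was read as AlphaScreen signal after compounds were pinned into GST-Six1 plus His-tagged Eya2 (5X stock 250/500 nM) in pH 8.0 Tris/NaCl/TCEP buffer, beads added, then incubated 1 h, 37 C, dark.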
CtBP-E1A blk = qHTS Assay for Inhibitors of the CtBP/E1A Interaction; CtBP / adenovirus E1A interaction (AlphaScreen); AlphaScreen GST-E1A/His-CtBP binding, 1536-well; active compounds read low; control for the full effect not named in the record; activity change, % (no concentration beside the values); hit rate 0.49% among 340,000; AID 651724, 2012; in the data active means activity change below about -65%; inconclusive means about -30% to -65%; inactive means above about -30%; note: % is set by controls: 0 for no effect and ±100 for the full control effect
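AlphaScreen with 125 nM GST-E1A and 125 nM His-CtBP (5X stocks) in Tris pH 8.0, 300 mM NaCl, BSA, Tween 20, TCEP. Compounds preincubated 2 h at 37 deg C, then glutathione donor/nickel acceptor beads added for 1 h at 37 deg C in dark.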
gsp antagonist = qHTS for Antagonists of gsp, the Etiologic Mutation Responsible for Fibrous Dysplasia/McCune-Albright Syndrome: qHTS | gsp-mutant cells, cAMP HTRF, 30 min; control for the full effect not named in the record | Potency, µM (titrated, usually from 76.9 µM), for the others: at the top dose activity change, negative = inhibition, most hits filed as inhibitors | hit rate 0.4% among 340,000 | AID 624288, 2012; active = falling curve of any shape with a large fitted effect; inconclusive = falling curve, mostly with a smaller effect; inactive = flat or rising curve; cell line not stated here;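 note: intracellular cAMP measured with PDE inhibitor Ro 20-1724 present during compound exposure; potency is the fitted concentration of half-maximal effect; % is set by controls: 0 for no effect and ±100 for the full control effect; nearly all actives have a fitted effect of over 65% in size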
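Cells, 2000/well, grown 16–24 h in DMEM 10% FBS with 0.5 mg/ml G418, then compounds plus […] (300 uM addition stock), 30 min at 37C. cAMP read by HTRF (cAMP-d2 and anti-cAMP antibody-K in lysis buffer) after 30 min RT.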
D2 agonist = Beta-Arrestin HTS for Positive Allosteric Modulators of the Human D2 Dopamine Receptor: Agonists; hit rate 0.084% among 360,000; DiscoveRx PathHunter D2 beta-arrestin, luminescence, 90 min; 100% = 57 uM dopamine signal; activation, % (test concentration not listed); D(2) dopamine receptor (Homo sapiens), P14416; in the data active = activation above about 40%; inconclusive = about 15% to 40%; inactive = below about 15%; note: compound concentration not given in the record; the text of the record calls up to 30% inactive
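Agonist mode: compounds alone added to overnight-plated D2 PathHunter cells for 90 min at 37 C, with 57 uM final dopamine (EC100) defining full response. Beta-arrestin recruitment detected by chemiluminescent reagent, read after 1 h at ambient temperature.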
gsp ag = qHTS for Agonist of gsp, the Etiologic Mutation Responsible for Fibrous Dysplasia/McCune-Albright Syndrome: qHTS | AID 624287, 2012 | Potency, µM (titrated, usually from 76.9 µM), for inactives: at the highest dose activation (cAMP increase), actives largely listed as activators | gsp mutant cells, cAMP HTRF, 30 min; control for the full effect not named in the record | hit rate 0.13% among 340,000; active = well fitted activation curve with a large enough effect; inconclusive = small, poorly fitted or top-dose-only effect, or another doubt; inactive = no such curve, though single readings can be large or run the other way; cell line not stated here;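 note: phosphodiesterase inhibitor Ro 20-1724 added with compounds to block cAMP breakdown; potency is the fitted concentration of half-maximal effect; nearly all actives have a fitted effect of over 60% in size; about a fifth of the inactives were tested at one dose only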
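Cells in DMEM/10% FBS with G418 were pretreated with compounds in DMSO plus […] (300 uM stock) for 30 min at 37C. cAMP was measured by HTRF (cAMP-d2 plus anti-cAMP antibody-K) after 30 min at room temperature.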
Starred values were filed as active, the others as inactive; u = inconclusive; x = not tested or not shown; & = joins results of further samples; [ ] = dose if it differs, or a comment.

SMILES	D2 PAM	Six1-Eya2 blk	CtBP-E1A blk	gsp antagonist	D2 agonist	gsp ag
CC(C)C[C@H]1C(=O)N2CCCC2[C@]2(O)O[C@](NC(=O)[C@@H]3C=C4c5cccc6[nH]cc(c56)CC4N(C)C3)(C(C)C)C(=O)N12 (some centres undefined)	54*	-5	-23	-17%	122*	x
O=C(CCn1nc(-c2ccc(Cl)cc2)ccc1=O)N1CCC2(CC1)OCCO2	-4	-4	5	-1%	-4.7	-6%
CCN1CCN(c2cc(N3CCCC3)c([N+](=O)[O-])cc2F)CC1	-33	-18	0	10%	-3.6	-25%
FC(F)(F)c1ccc(CSc2ccccn2)cc1	-8	5	12	7%	-5.5	6%
c1ccc(C2CC3CC4(CCCC4)N2O3)cc1 (centres undefined)	-9	6	0	5%	-2.4	-40%[inhibitor]
Oc1ccc(Cl)cc1Sc1cc(Cl)ccc1O	6	9	-10	u	-5.1	11%[15.4 µM]
Cc1ccccc1OP(N)(=O)Oc1ccccc1C	-21	1	0	x	5.0	12%[15.4 µM]
CCOC(=O)CNC(=O)CNC(=O)c1nn(-c2ccc(OC)c(Cl)c2)c(=O)c2ccccc12	2	-2	-15	-8%	-2.3	u
C=C(Cl)CSC(=S)N(CC)CC	5	8	6	-4%	-2.1	x
Cc1ncc(CN2CCCC(C(=O)c3ccc(C(C)(C)C)cc3)C2)s1 (centres undefined)	-8	-15	0	u	-1.4	-43%
COCCCNC(=O)Cn1cc(/C=C2\C(=O)NC(=O)N(c3ccccc3F)C2=O)c2ccccc21	-4	5	4	-28%	-11	-13%[15.4 µM]
CCN(CC)C(=O)c1ccc(NC(=S)NC(=O)CCc2ccccc2)cc1	-20	-1	-11	-9%	1.3	4%
C/C(=N\OC(=O)NC(C)C)c1sc(-c2ccccc2)nc1C	28	-10	2	-20%	0.4	-32%[inhibitor]
CN(C)C(=O)Oc1cccc(OCc2n(C)c3ccccc3[n+]2C)c1	1	2	4	-4%	-0.2	45%[15.4 µM]
C[C@@H]1CN([C@@H](C)CO)C(=O)c2c(c3ccccc3n2C)-c2ccccc2CO[C@H]1CN(C)S(=O)(=O)c1ccc(C#N)cc1	-12	4	-2	x	-2.0	-51%[inhibitor]
CC(C)(C)c1cc([N+](=O)[O-])cc(C(C)(C)C)c1O	-6	-2	2	u	-7.7	15%
c1ccc2oc(N3CCNCC3)nc2c1	-7	-9	2	9%	-5.4	2%
Cc1[nH]c(=S)c(C#N)c2c1CCCC2	-12	-1	-2	2%	-2.1	14µM*
CN(C)S(=O)(=O)c1cc(C(=O)N2CCC(C(=O)O)(c3ccccc3)CC2)ccc1Cl	-3	-1	-11	-27%	-0.3	1%[15.4 µM]
C[C@]1(O)CCC2C3CC[C@H]4C[C@@H](OC(=O)[C@@H](N)CCCCN)CC[C@]4(C)C3CC[C@@]21C (some centres undefined)	-13	3	-2	x	-8.5	0%
COc1cc(/C=C/c2cccc[n+]2C)ccc1OCC(=O)Nc1ccccc1C	-8	0	3	9%	-3.5	-16%
N/C(=N\[N+](=O)[O-])N1CCN(C(=O)Oc2ccccc2)CC1	-20	6	x	-1%	-2.7	6%
O=C1NCN(c2ccccc2)C12CCN(C(c1cc3ccccc3o1)c1nnnn1C1CCCC1)CC2 (centres undefined)	-11	-13	-4	x	-4.2	x
OC(c1ccccc1)(c1ccc(Cl)cc1)C1CN2CCC1CC2 (centres undefined)	-11	9	0	15%	-5.3	1%[15.4 µM]
Cc1oc(-c2ccccc2)nc1CN1C(=O)C(C)N=C(c2ccccc2F)c2cc(Cl)ccc21 (centres undefined)	-5	0	17	u	-7.1	8%
c1cc2c(cc1[C@H]1OCC3C1CO[C@@H]3c1ccc3c(c1)OCO3)OCO2 (some centres undefined)	3	-6	3	-31%	1.4	-32%[inhibitor]
O=C1NC(=O)C(=Cc2cc([N+](=O)[O-])ccc2N2CCCCC2)C(=O)N1	5	-3	2	-22%	0.1	-15%
c1ccc(N2[C@@H]3CC[C@H]2c2ccccc2C3)cc1	1	-1	0	x	5.2	-43%
COc1ccc(C(=O)C23CN4CN(CN(C4)C2)C3)cc1	-2	12	6	11%	2.6	20%[15.4 µM]
CCCC[N+]12CCC(CC1)C(=C(c1ccccc1)c1ccccc1)C2	0	10	3	6%	-1.7	-8%
O=C1c2ccccc2-n2nnc(-c3ccccc3)c2C2c3ccccc3CCN12 (centres undefined)	-3	5	-2	x	-1.9	x
CCOc1ccc(C=C2C(=O)NC(=S)NC2=O)cc1OCC	-5	3	-1	9%	0.5	-2%[15.4 µM]
CCC(c1nnnn1-c1ccc(OC)cc1)N1CCC(n2c(=O)[nH]c3ccccc32)CC1 (centres undefined)	3	-1	2	x	8.0	x
Fc1ccc(CCNCc2ccccc2Cl)cc1	-24	9	11	4%	0.8	-18%
COc1ccc(CC(=O)Nc2ccc(C#N)c(Cl)c2)cc1S(=O)(=O)N1CCOCC1	6	-24	-10	-9%	0.8	19%
COC(=O)C1=C(c2ccc3ccccc3c2)C[C@@H]2CC[C@H]1N2C(=O)NCCNC(C)=O	-6	8	x	9%	0.0	10%
NCCCC(=O)OC1N=C(c2ccccc2Cl)c2cc(Br)ccc2NC1=O (centres undefined)	-7	0	x	5%	1.0	1%[15.4 µM]
COc1cccc(OC)c1C1=NCC(=O)Nc2c1oc1ccc(Br)cc21	-2	-6	4	5%	-3.2	u
Cc1cccc(NC(=O)CSc2nnc([C@@H](N)Cc3c[nH]c4ccccc34)o2)c1C	-1	-9	-10	-7%	-0.1	-2%
Fc1ccc(C(OCCN2CCCC2)c2ccc(Br)cc2)cc1 (centres undefined)	-16	-10	-1	4%	0.0	-3%[15.4 µM]
CCC(C(=O)N1C[C@H]2C[C@@H](C1)c1cccc(=O)n1C2)c1ccccc1 (some centres undefined)	-18	24	33	9%	-2.8	x
O=c1[nH]c(=S)[nH]c(O)c1N=Nc1cccc(S(=O)(=O)N2CCOCC2)c1	-26	-4	x	-8%	-7.0	7%
CN1CCC(OC(=O)C2c3ccccc3Oc3ccccc32)CC1	-34	3	-5	19%	-3.1	-37%[inhibitor]
CCOc1ccc(C2CC(c3c(O)n(C)c(=O)n(C)c3=O)=NN2)cc1 (centres undefined)	-7	-1	-2	2%	-2.2	8%[15.4 µM]
CC(=O)Nc1cc(C(=O)N2CCC3(CC2)OCCO3)ccc1S(=O)(=O)c1ccc(Cl)cc1	2	5	-1	-6%	-0.9	-25%
O=C(Nc1cccc2ncccc12)c1ccccc1Cl	-2	1	x	10%	-4.2	-28%
Cc1ccccc1N1C(=O)CC(=O)NC1=O	0	-1	3	-10%	-1.0	-29%
COC(=O)C1C(OC(=O)c2ccccc2)CC2CCC1N2C (centres undefined)	-5&-21	3&4	-23&7	1%&10%	-1.6&-6.1	x
CCCCn1c(O)c(C(=O)/C=C/c2ccc3c(c2)OCO3)c(=O)[nH]c1=O	-8	-6	-23	-11%	6.0	14%[15.4 µM]
BrCC1C[n+]2c(SCc3ccccc3)nc3sc4c(c3c2O1)CCCC4 (centres undefined)	-4	-9	-15	-13%	-3.0	5%[15.4 µM]
Cc1ccc(N2C(=O)NC(=O)/C(=C\C=C\c3ccco3)C2=O)cc1	-3	-5	8	u	-0.1	-25%
Cc1ccc(N2C(=O)NC(=O)/C(=C/c3ccoc3)C2=O)cc1	0	u	1	-7%	-1.4	3%[15.4 µM]
CCC(=O)OC(Cc1ccccc1)(c1ccccc1)C(C)CN(C)C (centres undefined)	-25	1	0	-2%	2.1	x
CC[C@H]1CN2CCc3cc(OC)c(OC)cc3C2C[C@@H]1C[C@H]1NCCc2cc(OC)c(OC)cc21 (some centres undefined)	-34	-9	-5	11µM*	-5.8	x
Cn1c2ccccc2c2c(C(=O)N3CCC4(CC3)OCCO4)cn(C3CCCCC3)c(=O)c21	10	-3	-3	1%	-1.6	10%
Cc1ccc2c(c1)CC1(CN2C)C(=O)NC(=O)N(c2cc(C)ccc2C)C1=O (centres undefined)	-11	-3	1	-1%	-3.8	0%
CC(O)C1C=CC=CC(=O)OC2CC3OC4C5OC5(C)CCC4(COC(=O)C4OC4(C)C(O)CO1)C2(C)C31CO1 (centres undefined)	-18	-2	1	3%	-7.2	-37%[inhibitor]
O=[N+]([O-])c1ccc(NCCNc2ccc([N+](=O)[O-])cc2)cc1	-8	8	3	2%	-0.5	6%
CC(=O)C1C2c3ccccc3O[C@@]1(C)N=c1s/c(=C/c3ccoc3)c(=O)n12 (some centres undefined)	1	-3	-6	-5%	-5.5	2%[15.4 µM]
CCC(=NCC1CCCO1)c1c(O)n(-c2ccccc2C)c(=O)[nH]c1=O (centres undefined)	-10	16	7	-6%	-18	-5%[15.4 µM]

Among those listed so far, 3 have two or more sulfur atoms.
SMILES	D2 PAM	Six1-Eya2 blk	CtBP-E1A blk	gsp antagonist	D2 agonist	gsp ag
C=C(Cl)CSC(=S)N(CC)CC	5	8	6	-4%	-2.1	x
O=c1[nH]c(=S)[nH]c(O)c1N=Nc1cccc(S(=O)(=O)N2CCOCC2)c1	-26	-4	x	-8%	-7.0	7%
BrCC1C[n+]2c(SCc3ccccc3)nc3sc4c(c3c2O1)CCCC4 (centres undefined)	-4	-9	-15	-13%	-3.0	5%[15.4 µM]

The listing continues:
SMILES	D2 PAM	Six1-Eya2 blk	CtBP-E1A blk	gsp antagonist	D2 agonist	gsp ag
CN1C(=O)c2ccccc2NC(=O)[C@]12O[C@@H]2c1ccccc1	-25	10	2	5%	-5.3	x
CP(=O)(Nc1ccccc1)C(Cl)(Cl)Cl (centres undefined)	0	0	7	15%	-2.2	13%[15.4 µM]
Cc1nn(CCC#N)c2c1P(=S)(N1CCCC1)OC(c1ccc(F)cc1)=N2 (centres undefined)	-1	1	5	0%	-1.9	-10%
Cc1ccc(S(=O)(=O)N2Cc3cnnn3-c3ccccc3C2C#N)cc1 (centres undefined)	-16	7	8	3%	-2.7	x
COc1ccc(-n2nnnc2C(CCc2ccccc2)N2CCC3(CC2)C(=O)NCN3c2ccccc2)cc1 (centres undefined)	-1	-27	-14	x	-1.5	x
C(#CCN1CCCCC1)COCc1ccccc1	-39	0	-3	2%	-3.2	-6%[15.4 µM]
Cc1cccc(OP(=O)(Nc2cccnc2)Oc2cccc(C)c2)c1	-9	-1	-1	11%	1.8	12%[15.4 µM]
CN1CCC(OC(=O)Cc2ccccc2)CC1	-6	0	x	9%	x	24%

The list is partial; count on the stated rates, not on these rows.
